# Cruzain inh Det: inhibitors of Trypanosoma cruzi cruzain with detergent; P25779; purified cruzain, Z-FR-AMC fluorescence, 0.01% Triton; Potency, µM, without a hit: max response, negative = inhibition, actives largely listed as inhibitors; actives 0.43% (n = 200,000); active = well fitted curve in the direction sought with a large enough effect; inconclusive = small, poorly fitted or top-dose-only effect, or another doubt; inactive = no such curve, though single readings can be large; an effect the other way counts as inactive or inconclusive;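 note: plate controls were neutral wells for no effect and buffer without enzyme for full effect; nearly all actives have a fitted effect of over 40% in size; top concentration of the series not given in the record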
# Target sequence (P25779 123-467 limits assumed): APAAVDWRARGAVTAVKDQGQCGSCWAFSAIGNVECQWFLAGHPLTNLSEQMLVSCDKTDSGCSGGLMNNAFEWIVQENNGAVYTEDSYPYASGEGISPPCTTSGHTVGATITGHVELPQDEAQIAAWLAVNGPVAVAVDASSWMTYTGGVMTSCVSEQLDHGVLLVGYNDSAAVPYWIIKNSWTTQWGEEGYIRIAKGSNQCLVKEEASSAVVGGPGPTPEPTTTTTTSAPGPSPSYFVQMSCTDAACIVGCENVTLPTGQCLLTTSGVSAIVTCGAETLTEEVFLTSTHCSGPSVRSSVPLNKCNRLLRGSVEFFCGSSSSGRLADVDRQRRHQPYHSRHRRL
#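 Detergent-containing arm of a paired screen for aggregation-based inhibition: 0.01% Triton X-100 present. Cruzain at 1.5 nM cleaved 2 uM Z-FR-AMC at pH 5.5 with 5 mM DTT; AMC fluorescence gain over 60 s measured activity.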
# Cruzain inh noDet: blocks cruzain activity in detergent-free assay | purified cruzain, Z-FR-AMC fluorescence, no detergent | Potency, µM, for the others: max response, negative = inhibition, actives largely listed as inhibitors | actives 2.3% (n = 200,000); active = well fitted curve in the direction sought with a large enough effect; inconclusive = small, poorly fitted or top-dose-only effect, or another doubt; inactive = no such curve, though single readings can be large; an effect the other way counts as inactive or inconclusive;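 note: plate controls were enzyme without inhibitor for no effect and buffer without enzyme for full effect; nearly all actives have a fitted effect of over 40% in size; top concentration of the series not given in the record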
#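 Purified cruzain at 1.5 nM, pre-incubated 15 min with compound at room temperature in 100 mM sodium acetate pH 5.5, 5 mM DTT, 0.00005% Triton X-100. Reaction started with 2 uM Z-FR-AMC; AMC fluorescence increase over 60 s gives rate.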
# RE007 growth inh: less growth of the S. pombe RE007 Vpr strain. S. pombe RE007 Vpr strain, BacTiter-Glo ATP luminescence, 24 h; control for the full effect not named in the record. Potency, µM (doses to about 92.2 µM), for inactives: top-dose activity change, negative = less growth. actives 0.21% (n = 360,000). AID 651644; active = well fitted falling curve with a large enough effect; inconclusive = small, poorly fitted or top-dose-only effect; inactive = no such curve, though single readings can be large or run the other way;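 note: % is set by controls: 0 for no effect and ±100 for the full control effect; nearly all actives have a fitted effect of over 50% in size; the assay follows cell death caused by Vpr and the record does not say whether a fall means rescue or toxicity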
#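 Fission yeast strain RE007, carrying one chromosomally integrated HIV-1 vpr copy, was seeded at OD 0.01 in PMG+AL medium with 23 nL pinned compound. After 24 h at 30 °C and 99% humidity, viability was read by BacTiter-Glo luminescence.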
# SARS PLpro yeast: SARS-CoV PLP inhibition in yeast; S. cerevisiae expressing SARS-CoV PLpro, growth rescue; control for the full effect not named in the record; Potency, µM (doses to about 32.9 µM), inactives show top-dose activity, positive = growth rescue; actives 0.19% (n = 330,000); AID 485353; note: 0% is about no effect; nearly all actives have a fitted effect of over 55% in size; growth read by luminescence after 48 h
# 2A StopGo: lowers the luciferase signal of an FMDV 2A StopGo reporter. human cells with a luciferase reporter of 2A StopGo recoding; control for the full effect not named in the record. Potency, µM (series often up to 57.9 µM), for inactives: at the highest dose signal change, negative = less light. actives 1.2% (n = 410,000). AID 1159524; active = well fitted falling curve with a large enough effect; inconclusive = small, poorly fitted or top-dose-only effect; inactive = no such curve, though single readings can be large or run the other way; tested in HEK293T cells; note: % is set by controls: 0 for no effect and ±100 for the full control effect; nearly all actives have a fitted effect of over 45% in size; luciferase light after 4 h
# Marburg entry inh: blocks Marburg virus binding to or entry into cells; Marburg virus pseudotyped entry inhibition, cell reporter; control for the full effect not named in the record; about a third of the inactives were read at about 46 µM; Potency, µM (top dose mostly 37.8 µM), without a hit: at the highest dose activity change, negative = inhibition, actives largely listed as inhibitors; actives 1.8% (n = 300,000); active = well fitted inhibition curve with a large enough effect; inconclusive = small, poorly fitted or top-dose-only effect, or effect the other way; inactive = flat fitted curve, though single readings scatter; tested in HEK293 cells; about a fifth of its hits are not listed in these tables; note: % is set by controls: 0 for no effect and ±100 for the full control effect; luciferase read-out
# Lassa entry inh: inhibitors of Lassa virus binding or cell entry; actives 1.2% (n = 300,000); Lassa virus pseudotype entry inhibition, cell reporter; control for the full effect not named in the record; Potency, µM (top dose mostly 37.9 µM), without a hit: top-dose activity change, negative = inhibition, hits mostly inhibitors; active means well fitted inhibition curve with a large enough effect; inconclusive means small, poorly fitted or top-dose-only effect, or effect the other way; inactive means flat fitted curve, though single readings scatter; tested in HEK293 cells; note: % is set by controls: 0 for no effect and ±100 for the full control effect; nearly all actives have a fitted effect of over 50% in size; luciferase read-out
# NS1 inh: blocks influenza NS1 protein function. S. cerevisiae slowed by influenza A NS1, growth recovery by OD600. Potency, µM (titrated, usually from 46.1 µM), without a hit: at the top dose activity, positive = more growth. actives 0.4% (n = 270,000). AID 2326; note: actives are rising curves; nearly all actives have a fitted effect of over 50% in size
#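 A cell-based growth assay was used: compounds that relieve NS1-induced slow growth of budding yeast raise OD600. Assay medium was yeast nitrogen base with ammonium sulphate and -URA supplement, pH 6.0, with 2% galactose.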
# * marks the source's active call; other numbers are inactive results; ? = inconclusive; / = not tested or not shown; & = joins results of further samples; [ ] = remark or other dose. Unless noted, calls come from the whole dose curve; as a rule, active means well fitted rising curve with a large enough effect; inconclusive means small, poorly fitted or top-dose-only effect; inactive means no such curve, though single readings can be large or run the other way. Potency is the fitted concentration of half-maximal effect.
SMILES,Cruzain inh Det,Cruzain inh noDet,RE007 growth inh,SARS PLpro yeast,2A StopGo,Marburg entry inh,Lassa entry inh,NS1 inh
Cc1ccc(CNS(=O)(=O)CCNC(=O)c2ccccc2)cc1,/,/,0%,7%,6%,12%,10%,/
Cc1ccc(S(=O)(=O)N(C)C)cc1NC(=O)COC(=O)Cc1n[nH]c(=O)c2ccccc12,/,/,-17%,-8%,-23%,-6%,-2%,14%
COc1ccccc1NS(=O)(=O)c1cccc(C(=O)NN=C2CCCC2)c1,/,/,7%,0%,-12%,-2%[46.1 µM],?,/
COc1ccc(/C=C/C(=O)c2cc(F)ccc2OC(=O)c2ccccc2C)cc1OC,-3.7%,6%,4%,-3%,25µM*,5.2µM*,?,20%
COc1ccc(S(=O)(=O)Nc2ccccn2)cc1OC,2.0%,3%,-7%,?,/,12%,-15%,-12%
O=C(N/N=C/c1ccc(OC(=O)c2ccccc2Cl)cc1)c1cc(O)cc(O)c1,/,/,15%,-1%,4%,-2%,10%,-11%
O=C(COc1ccc2ccc(=O)oc2c1)Nc1ccc2c(c1)OCCO2,-0.9%,-19%,-10%,-1%,19%,-2%,13%,?
O=C(CNS(=O)(=O)c1cccs1)N1CCC2(CC1)OCCO2,3.7%,3%,-11%,8%,20%,3%[46.1 µM],30%,-1%
S=c1[nH]nc(-c2ccncc2)n1/N=C/C=C/c1ccco1,/,/,5%,-1%,-17%,/,/,10%
CCc1ccc(CNC(=O)CCn2ccc3cc(S(=O)(=O)N4CCCC4)ccc32)cc1,/,/,9%,-10%,-15%,/,/,-9%

# One compound at a time, as listed above.
# COc1ccc(/C=C/C(=O)c2cc(F)ccc2OC(=O)c2ccccc2C)cc1OC is entered as Cruzain inh Det = -3.7%; Cruzain inh noDet = 6%; RE007 growth inh = 4%; SARS PLpro yeast = -3%; 2A StopGo = 25µM*; Marburg entry inh = 5.2µM*; Lassa entry inh = ?; NS1 inh = 20%
# COc1ccc(S(=O)(=O)Nc2ccccn2)cc1OC is entered as Cruzain inh Det = 2.0%; Cruzain inh noDet = 3%; RE007 growth inh = -7%; SARS PLpro yeast = ?; 2A StopGo = /; Marburg entry inh = 12%; Lassa entry inh = -15%; NS1 inh = -12%

# Next part.
SMILES,Cruzain inh Det,Cruzain inh noDet,RE007 growth inh,SARS PLpro yeast,2A StopGo,Marburg entry inh,Lassa entry inh,NS1 inh
Cc1ccc(-c2cccc(OC(=O)c3ccccc3F)c2)cc1,-1.6%,-2%,-6%,8%,0%,1%,/,-9%
Cc1ccc(CN2CCN(/N=C/C(Br)=C\c3ccccc3)CC2)cc1,/,/,?,-3%,0%,?,?,-30%
CC(=O)Nc1ccc(S(=O)(=O)N2CCC(NC(=O)c3ccco3)CC2)cc1,-1.1%,2%,-4%,6%,-12%,?,3%,7%
CCOC(=O)c1cc(CC)sc1NC(=O)CN1CCN(C(=O)c2ccco2)CC1,/,/,9%,-7%,-21%,/,/,-46%
CCOC(=O)C(NCc1ccco1)(NC(=O)c1ccc(OC)cc1)C(F)(F)F (stereo not given),8.8%,9%,3%,3%,-2%,?,-19%,35%
C=CCN1C(=O)NC(=O)/C(=C/c2cnc(SC)nc2)C1=O,4.4%,-6%,1%,0%,-9%,-6%,1%,19%
COc1ccccc1CC(=O)N1CCOCC1,/,/,4%,-1%,-14%,/,/,18%
Cc1ccsc1/C=N/NC(=O)c1nnn(-c2nonc2N)c1C(C)C,/,/,-11%,5%,-17%,/,/,-14%
CCN(CC)C(=O)C(=O)Nc1ccc(OCc2ccccc2)cc1,/,/,4%,-1%,17%,?,3%,-6%
CCOC(=O)C1Nc2ccc(C(=O)O)cc2C2C=CCC12 (stereo not given),/,/,0%,2%,-8%,7%[46.1 µM],?,0%
O=C(CSc1nc(-c2ccccc2)cs1)Nc1cccc([N+](=O)[O-])c1,1.4%,?,2%,-7%,?,?,19%,8%
CCn1c(=N)c(C(=O)NCc2cccnc2)cc2c(=O)n3cccc(C)c3nc21,?,?,/,1%,/,-2%,/,3%
O=C(NCCC1=CCCCC1)c1ccc(-n2cncn2)c([N+](=O)[O-])c1,/,/,-4%,5%,6%,15%,/,/
COCCCNC(=O)/C(C#N)=C1\N=C(NC(=O)c2cccs2)c2ccccc21,/,/,-12%,0%,-23%,?,?,-3%
CN1CCN(C(c2ccccn2)c2cc(Cl)c3cccnc3c2O)CC1 (stereo not given),/,/,?,-24%,-26%,/,/,-5%
O=C(CSc1nc2c([nH]c3ccccc32)c(=O)n1-c1ccc(F)cc1)NCc1ccc(F)cc1,-0.8%,8%,/,/,?,/,?,/
Brc1ccc(C2=NC(Cc3ccccc3)CO2)cc1 (stereo not given),-1.5%,1%,10%,11%,69%[activator],37%,?,-11%
OCCNCc1cccc2ccccc12,/,/,-6%,0%,-11%,14%[46.1 µM],-1%,3%
c1ccc(-n2c(-c3ccncc3)nnc2N2CCOCC2)cc1,-0.7%,-4%,1%,1%,11%,1%,9%,-14%
CC/C(=C\C=C\[C@@H]1C=C[C@@H]2CCC[C@H]2[C@@H]1C(=O)c1ccc[nH]1)[C@@H]1O[C@@H]([C@@H](C)C(=O)O)CC[C@@H]1C,-15%,?,9%,-93%,0%,?,?,-33%
Cn1c(Cc2ccccc2)nnc1SCCC(=O)Nc1ccccc1,4.7%,?,-10%,/,-2%,8%,0%,4%
O=C(CSc1nnc(CCCN2C(=O)c3cccc4cccc(c34)C2=O)n1-c1ccccc1)NCCCO,-7.8%,28%,5%,6%,-12%,2%,0%,-15%
C/C(=N\Nc1ccccn1)c1cccs1,/,/,-1%,8%,61%[activator],-12%[46.1 µM],/,/
O=C(O)C1CCN(Cc2cccnc2)CC1,/,/,-23%,2%,-14%,4%[46.1 µM],3%,/
CN(C)C(=O)Oc1cccc2c(OC(=O)N(C)C)cccc12,0.9%,3%,31%,3%,-12%,19%,24%,5%
COc1ccc(-c2cn3c(n2)sc2cc(C(=O)N4CCCCC4)ccc23)cc1,-0.3%,2%,/,/,-20%,/,-21%[46.1 µM],/
Cc1ccsc1C(=O)N1CCN(S(=O)(=O)c2cccs2)CC1,/,/,4%,0%,-4%,17%,-12%,/
O=C(CSc1nnc(-c2c[nH]c3ccccc23)n1CC1CCCO1)Nc1ccc2c(c1)OCCO2 (stereo not given),0.2%,17%,-2%,1%,17%,3%,-10%,4%
CCOC(=O)N1CCN(C(=O)CS(=O)Cc2nc(-c3cccc(C)c3)oc2C)CC1 (stereo not given),-0.4%,3%,7%,0%,-22%,/,/,2%
O=C(O)C(Cc1ccccc1)N=C(NS(=O)(=O)c1ccccc1)c1ccccc1 (stereo not given),/,/,0%,3%,-14%,1%[46.1 µM],5%[46.1 µM],/
C/C(CC(=O)Nc1ccccn1)=N\NC(=O)c1ccccc1O,/,/,-11%,?,29%,?,?,-47%
Cc1ccc(NC(=O)N2CCC(=O)N2)cc1,4.2%,-14%,-20%,2%,55%[activator],?,3%,2%
CCC(NC(=O)COC(=O)C1CC2CCCC(C1)C2=O)c1ccc(Br)cc1 (stereo not given),/,/,1%,-5%,-15%,1%,?,/
Cc1ccc(N2C(=S)SC3CS(=O)(=O)CC32)cc1 (stereo not given),/,/,-2%,1%,0%,5%[46.1 µM],7%[46.1 µM],/
COc1ccccc1NC(=S)N(CCN(C)C)C(C)c1ccncc1 (stereo not given),/,/,4%,-1%,-6%,/,/,-8%
CC(=O)c1cccc(NC(=O)C2=CC(c3ccco3)=NS(=O)(=O)N2C)c1,-3.3%,1%,7%,-2%,-24%&0%,?,19%&15%[46.1 µM],4%
O=c1[nH]c2ccccc2n1CCCOc1ccccc1,-3.0%,-3%,30%,-4%,25%,20%,-1%,-36%
Cc1cccc(C(=O)Oc2ccccc2/C=N/Nc2ccc([N+](=O)[O-])cc2)c1,-1.4%,?,1%,-4%,-17%,-19%,-21%,1%
Cc1ccc(NC(=O)Cn2cnc3c(oc4nc5c(cc43)COC(C)(C)C5)c2=O)cc1,-1.7%,6%,19%,10%,21%,-37%,-3%,6%
COc1cccc(CNCCOCCO)c1OC,0.6%,-4%,3%,3%,-7%,11%,8%,1%

# Reformatted: entries from further up
SMILES | Cruzain inh Det | Cruzain inh noDet | RE007 growth inh | SARS PLpro yeast | 2A StopGo | Marburg entry inh | Lassa entry inh | NS1 inh
Cc1ccsc1C(=O)N1CCN(S(=O)(=O)c2cccs2)CC1 | / | / | 4% | 0% | -4% | 17% | -12% | /
O=C(CSc1nnc(-c2c[nH]c3ccccc23)n1CC1CCCO1)Nc1ccc2c(c1)OCCO2 (stereo not given) | 0.2% | 17% | -2% | 1% | 17% | 3% | -10% | 4%
CCOC(=O)N1CCN(C(=O)CS(=O)Cc2nc(-c3cccc(C)c3)oc2C)CC1 (stereo not given) | -0.4% | 3% | 7% | 0% | -22% | / | / | 2%
O=C(O)C(Cc1ccccc1)N=C(NS(=O)(=O)c1ccccc1)c1ccccc1 (stereo not given) | / | / | 0% | 3% | -14% | 1%[46.1 µM] | 5%[46.1 µM] | /
C/C(CC(=O)Nc1ccccn1)=N\NC(=O)c1ccccc1O | / | / | -11% | ? | 29% | ? | ? | -47%
Cc1ccc(NC(=O)N2CCC(=O)N2)cc1 | 4.2% | -14% | -20% | 2% | 55%[activator] | ? | 3% | 2%
CCC(NC(=O)COC(=O)C1CC2CCCC(C1)C2=O)c1ccc(Br)cc1 (stereo not given) | / | / | 1% | -5% | -15% | 1% | ? | /
Cc1ccc(N2C(=S)SC3CS(=O)(=O)CC32)cc1 (stereo not given) | / | / | -2% | 1% | 0% | 5%[46.1 µM] | 7%[46.1 µM] | /
COc1ccccc1NC(=S)N(CCN(C)C)C(C)c1ccncc1 (stereo not given) | / | / | 4% | -1% | -6% | / | / | -8%
CC(=O)c1cccc(NC(=O)C2=CC(c3ccco3)=NS(=O)(=O)N2C)c1 | -3.3% | 1% | 7% | -2% | -24%&0% | ? | 19%&15%[46.1 µM] | 4%
O=c1[nH]c2ccccc2n1CCCOc1ccccc1 | -3.0% | -3% | 30% | -4% | 25% | 20% | -1% | -36%

# Screening data from PubChem BioAssay.
